VACV Venus inh = vaccinia inhibition (Venus reporter); Vaccinia virus Venus reporter expression, fluorescence; 0.46% of 330,000 active; Potency, µM (top dose mostly 36.5 µM), for the others: at the top dose activity change, negative = inhibition, hits mostly inhibitors; active means well fitted inhibition curve with a large enough effect; inconclusive means small, poorly fitted or top-dose-only effect; inactive means no such curve, though single readings can be large or run the other way; tested in A549 cells; further: nearly all actives have a fitted effect of over 30% in size; inactives centre near -10
VACV mCherry inh = inhibitors of vaccinia virus infection (mCherry reporter signal); Vaccinia virus mCherry reporter infection, fluorescence; about a quarter of the inactives have no number; Potency, µM (titrated, usually from 36.5 µM), without a hit: top-dose activity change, negative = inhibition, actives largely listed as inhibitors; AID 720579; 0.63% of 310,000 active; active = well fitted inhibition curve with a large enough effect; inconclusive = small, poorly fitted or top-dose-only effect; inactive = no such curve, though single readings can be large or run the other way; tested in A549 cells; further: nearly all actives have a fitted effect of over 35% in size; inactives centre near -10
Starred values were filed as active, the others as inactive; i = inactive; ? = inconclusive; . = not tested or not shown; & = joins results of further samples. On the % scale 0 is the no-effect control and ±100 the full control effect; potency means the concentration at half of the fitted maximal effect. Compounds as they come; about 0.82% have a hit in one of these screens.

SMILES	VACV Venus inh	VACV mCherry inh
Cc1c(NC(=O)C2C3C=CC(C3)C2C(=O)O)c(=O)n(-c2ccccc2)n1C (configuration not stated)	-14.1%	-2.7%
CCN(c1ccccc1)S(=O)(=O)c1nnc(NC(=O)C2CCCCC2)s1	-7.5%	-5.1%
CCCN(Cc1cc2cc(OC)ccc2[nH]c1=O)C(=O)c1ccco1	-18.3%	i
CC(=O)Nc1nc2ccc(-c3nc4ccccc4o3)cc2s1	-11.7%	-13.1%
Cn1c(=O)c2ccccc2n(CC(=O)NCCC2=CCCCC2)c1=O	-16.2%	i
COc1ccccc1CN1CCC(n2nccc2NC(=O)CCc2ccccc2)CC1	-8.2%	-11.3%
Cc1cc(C)n(Cc2ccc(F)cc2)c(=O)c1C#N	-4.6%	i
CCNC(=O)C1(C)CCCN(C(=O)c2cc(C)nn2C(C)(C)C)C1 (configuration not stated)	4.4%	9.1%
CCC(=O)Nc1cc2nn(-c3ccccc3)nc2cc1Cl	-1.6%	-6.8%
COCCNc1ccc2cc(S(=O)(=O)N3CCCCC3)ccc2n1	-2.2%	-8.4%
O=C(Cc1ccccc1)Nc1ccccc1C(=O)N1CCN(c2ccccc2)CC1	-3.0%	-11.9%
Cc1c(OCC(=O)NCC2CCC(C(=O)O)CC2)ccc2c(-c3ccccc3)cc(=O)oc12 (configuration not stated)	4.0%	-5.3%
Fc1ccc(F)c(C2=NNC(=Nc3ccccc3F)SC2)c1	?	?
CCCC[C@@H]1CC2=C(C(=O)OC(C)(C)O2)[C@H](c2ccc(C(C)C)cc2)O1	-8.8%	-3.0%
Cc1ccc(-n2c(-c3cc(C)n(C)n3)n[nH]c2=S)cc1	-8.9%	-13.6%
CC(=O)N1CCc2c(sc3c2c(=O)n(Cc2ccccc2)c(=O)n3Cc2ccc(Cl)cc2)C1	-6.8%	-24.5%
CCCCC(=O)Nc1ccc(NC(=O)C2CC2)nc1	-16.0%	i
Cc1nc2c(C(=O)NCCC(C)C)c[nH]n2c(=O)c1Cl	-16.8%	i
COc1cccc(CNC(=O)Cn2c(=O)n3nc(-c4cccc(F)c4)nc3c3ccccc32)c1	-12.4%	-6.2%
O=C(Nc1ccc(Br)cc1)c1ccc(F)c(S(=O)(=O)N2CCCc3ccccc32)c1	?	?
O=C(COC(=O)c1cc(Cl)ccc1[N+](=O)[O-])Nc1cccc2ccccc12	-3.1%	-12.7%
CC(C)C1(C)C(=O)N=C2c3ccccc3C(=O)N21 (configuration not stated)	-1.8%	-6.6%
Cc1cc(OCC(=O)Nc2c(C(C)C)cccc2C(C)C)no1	-7.9%	i
COCCN(C(=O)COc1ccc(Cl)cc1)c1nnc(-c2cccnc2)s1	-8.5%	.
CCCCOCCCNS(=O)(=O)Cc1ccccc1	-9.0%	i
Following part:
SMILES	VACV Venus inh	VACV mCherry inh
COc1ccccc1OCc1nc(C#N)c(N2CC(C)CC(C)C2)o1 (configuration not stated)	-10.9%	i
CCCSc1ncc(Cl)c(C(=O)NCc2ccc(C)cc2)n1	-10.9%	-12.7%
CC(=O)Nc1c(Br)cc2c(c1Br)Cc1cc(Br)ccc1-2	?	?
CCN1C[C@@H]2[C@@H]3C(=O)N(C)C(=O)[C@@H]3[C@](Cc3ccccc3)(C1=O)N2C(=O)c1ccccc1	-1.2%	i
COc1ccc(-n2c(SCC(=O)NCc3ccco3)nnc2-c2c[nH]c3ccccc23)cc1	-6.7%	-3.6%
Clc1ccc(-c2cn(-c3ccccc3)c3[n+]2CCS3)cc1	-3.9%	-2.5%
CCOc1ccc(NC(=O)CC2Nc3ccccc3NC2=O)cc1 (configuration not stated)	-11.1%	?
COc1ccc(/C=C/C(=O)O)cc1S(=O)(=O)N1CCCCC1	-3.0%	i
COC(=O)C1=C(c2ccc(OCc3ccccc3)cc2)C[C@@H]2CC[C@H]1N2C(=O)NCc1ccc2[nH]ccc2c1	-11.5%	-4.0%
CCOc1ccccc1NC(=O)CCS(=O)(=O)c1cccs1	-2.4%	-12.6%
COc1ccc(Cl)cc1NC(=O)C(C)N(C)Cc1cccc(Cl)c1Cl (configuration not stated)	-10.0%	-6.7%
CC(C)(C)NC(=O)NC(=O)CN1CCCCCCC1	-18.4%	-13.2%
COc1ccccc1CNC(=O)CCCn1c(=O)c2ccccc2n(CC(=O)Nc2ccc(C)cc2Cl)c1=O	?	?
Cc1ccc(CNC(=O)C2CCCN(S(=O)(=O)c3ccc4c(c3)oc(=O)n4C)C2)cc1 (configuration not stated)	-16.1%	-13.1%
COc1ccccc1N1CCN(c2ncc3c(n2)CCN(Cc2ccc(C)s2)C3)CC1	?	-29.3%
COc1ccc(CC(=O)OCC(=O)NC2CCCCC2)cc1OC	-9.3%	-14.6%
COc1ccc(CNC(=O)Cn2ccc(N)nc2=O)cc1	6.7%	-2.7%
Cc1nnnn1CC(=O)Nc1ccccc1[N+](=O)[O-]	-12.3%	i
CCn1c(CN2CCCCC2)nc2cc(NC(=O)c3cccc([N+](=O)[O-])c3)ccc21	-24.8%	-23.3%
Cc1ccc(OCC(=O)Nc2ccc3nc(SCCOc4ccccc4)sc3c2)cc1	-17.8%	-1.4%
Cc1ccn2c(Nc3ccc(C(C)C)cc3)c(-c3cccs3)nc2c1	-21.5%	-22.6%
COc1ccc(CCNC(=O)c2cccc(NC3=NC4CS(=O)(=O)CC4S3)c2)c(OC)c1 (configuration not stated)	2.6%	-10.3%
CCc1ccc(NC(=O)C2CCCN(c3nnc(C)c4c(C)n(-c5ccccc5)nc34)C2)cc1 (configuration not stated)	-7.3%	-12.7%
c1ccc(-c2nc3ccccc3n2C(c2ccccc2)c2nc3ccccc3[nH]2)cc1 (configuration not stated)	2.9%	i
CCCCN(CC)CCCNC(=O)c1cc2c(=O)[nH]c3ccccc3c2n1C	-0.2%	2.7%
Next section
SMILES	VACV Venus inh	VACV mCherry inh
CCN(CC)S(=O)(=O)c1ccc(N2CCN(CCOc3ccc(OC)cc3)CC2)nc1	-12.6%	?
COc1ccc(CCNC(=O)c2c(O)nc3c(C)cccn3c2=O)cc1	-0.5%	-11.5%
Cc1ccc(S(=O)(=O)NCC(=O)Nc2ccc3c(c2)OCCO3)cc1	-6.7%	i
Cc1cc(NC(=O)c2c([N+](=O)[O-])c(C)nn2C)no1	-19.5%	.
Cc1ccc(C(=O)CCC(=O)OCC(=O)Nc2ccc3[nH]c(=O)[nH]c3c2)cc1	-24.5%	-23.0%
COc1cc(NC(=O)N[C@@H](CCSC)C(=O)O)cc(OC)c1	-1.1%	-7.7%
O=C(Nc1cccc2ncccc12)c1cccc(Br)c1	-16.0%	-5.4%
O=C(O)c1ccc2c(c1)ncn2-c1ccc(F)c(F)c1	-1.1%	1.0%
COc1ccc(CCNC(=O)c2[nH]c(C)c(C(C)=O)c2C)cc1OC	-5.1%	i
CCOCc1c(C(=O)NC2=Nc3ccccc3NC(CC)=C2C(=O)OCC)oc2ccccc12	-13.3%	i
O=C(NC1CCCCCC1)C(=O)NC1CCCC1	-15.9%	-1.0%
CC(CCN(C)C)OC(=O)c1ccc(C(C)c2ccccc2)o1 (configuration not stated)	-4.8%	-16.4%
COc1ccc(-c2nnc(SCC(=O)Nc3ncc(C(F)(F)F)cc3Cl)n2CC(C)C)cc1	-10.6%	-7.9%
CC(=O)NC1=NN(C(C)=O)C(C)(CCS(=O)(=O)c2ccc(Br)cc2)S1 (configuration not stated)	-5.5%	-7.4%
CCOC(=O)c1cc(C)n(CC2CCC(C(=O)Nc3ccccc3OC)CC2)c1C (configuration not stated)	-9.5%	-14.9%
CCN(C(=O)Cc1cccs1)c1nnc(-c2cccnc2)s1	-5.7%	-17.0%
O=C(c1ccc(Cl)c(S(=O)(=O)N2CCOCC2)c1)N1CCN(c2ccccc2F)CC1	-19.7%	i
COc1ccc(C(=O)N(C)C2CCCc3ccccc32)cc1OC1CCN(C(C)C)CC1 (configuration not stated)	-18.5%	i
Fc1ccc2c(c1)nnn2C1CCN(Cc2c(Cl)cccc2Cl)CC1	-3.8%	.
Cc1ccccc1N1CCN(C2CCCN(C(=O)CCC3(C)CC3)C2)CC1 (configuration not stated)	-9.6%	-16.2%
C[C@]12CCC3=C4CCC(=O)C=C4CC[C@H]3C1CC[C@@H]2O (some centres not stated)	-10.6%	-3.2%
COC(=O)c1ccc(CN2C(=O)NC3(CCC(C)CC3)C2=O)cc1 (configuration not stated)	-5.2%	-4.9%
Cc1ccc(N=C2NC(=O)/C(=C\c3cccs3)S2)cc1C	-10.0%	-18.9%
CCc1cccc(C)c1NC(=O)C1CCN(c2nnc(C)c3c(C)n(-c4ccccc4)nc23)CC1	-9.3%	-3.6%
N#Cc1nc(N2CCCCC2)nc(N2CCOCC2)n1	-21.3%&-16.9%	-2.7%&0.8%
The results go on:
SMILES	VACV Venus inh	VACV mCherry inh
Cc1ccccc1NC(=O)Cc1nc(COC(=O)/C=C/c2ccc(F)cc2)cs1	-2.3%	i
Cc1ccc(-c2ccc(S(=O)(=O)NCc3ccco3)cc2)cc1	-13.0%	i
C/C(=N\NC(=O)C(c1ccccc1)c1ccccc1)c1ccccn1	?	?
COc1cc(C2/C(=C(\O)c3ccc4c(c3)OCCO4)C(=O)C(=O)N2c2nnc(C)s2)cc(OC)c1OC (configuration not stated)	-9.3%	i
c1ccc2nc3c(nc2c1)OCC1CCCCN31 (configuration not stated)	-10.5%	i
COc1ccc([C@@H]2[C@@H]3C(=O)N(C(C)(C)C)C(=O)[C@@H]3[C@]3(C)C(=O)N(c4cccc(Cl)c4)C(=O)N23)cc1	-20.5%	-14.6%
COc1ccc(-c2nn3c(-c4cc(-c5ccccc5)n[nH]4)nnc3s2)cc1	?	?
CN1CCN(C(=S)Nc2cccc(S(=O)(=O)N(C)C)c2)CC1	-0.6%	i
O=C(COC(=O)Cc1ccc(S(=O)(=O)N2CCOCC2)s1)Nc1ccc(OC(F)F)cc1	-5.7%	-12.4%
Cc1cc(C)c(NS(=O)(=O)c2cccc3cccnc23)c(C)c1	-12.1%	-1.0%
COc1cccc(NC(=O)NC(C)C2CC3CCC2C3)c1 (configuration not stated)	-16.2%	i
CCSCc1nnc(SCC(=O)c2ccc(OC)cc2)n1C	1.3%	.
COc1ccc(C(=O)NNC(=O)Nc2ccc(Cl)cc2)cc1	4.0%	-1.1%
Cc1cc(C)cc(NC(=O)CSc2nc3c(oc4ccccc43)c(=O)n2-c2ccccc2F)c1	0.8%	-5.5%
CCC(=O)NCCc1nc2cc(NC(=O)c3ccccc3Cl)ccc2n1C	-13.6%	i
CCN(CC)S(=O)(=O)c1ccc(NN=C(C#N)C#N)cc1	-23.4%	-19.3%
Cn1ncc([N+](=O)[O-])c1C(=O)Nc1cc(Cl)ccc1Cl	-20.4%	-3.7%
CCOc1ccc(S(=O)(=O)NCCc2csc3nc(-c4ccc(F)cc4)nn23)cc1	-26.5%	?
CCc1ccc(NC(=O)Cn2c(-c3cncs3)nc3ccccc32)cc1	-7.8%	-4.3%
COc1ccc(Cc2c(-c3ccc(C#N)cc3)nc3c(Cl)cc(C(F)(F)F)cn23)c(C)c1	6.0%	5.2%
Cc1noc(C)c1CN1C(=O)c2ccc([N+](=O)[O-])cc2C1=O	3.0%	i
COc1ccc(N2CC(C(=O)NCc3ccccc3)CC2=O)cc1 (configuration not stated)	-10.3%	.
O=C(NCCNC(=O)c1ccc(-c2cc(Cl)ccc2Cl)o1)c1cnccn1	-25.8%	-28.4%
Cc1cc(C)c(NC(=O)Cn2c(=O)n(CC3CCCO3)c(=O)c3ccccc32)c(C)c1 (configuration not stated)	2.1%	-13.4%
Cc1cc(-c2nnc(SCC(=O)Nc3ccc(Cl)cn3)n2N)n[nH]1	-1.5%	i

Complete entries as entered above:
Profile of Cc1ccc(C(=O)CCC(=O)OCC(=O)Nc2ccc3[nH]c(=O)[nH]c3c2)cc1 = VACV Venus inh: -24.5%; VACV mCherry inh: -23.0%
Profile of COc1ccc(/C=C/C(=O)O)cc1S(=O)(=O)N1CCCCC1 = VACV Venus inh: -3.0%; VACV mCherry inh: i

(more compounds)
SMILES	VACV Venus inh	VACV mCherry inh
O=C(Nn1c(-c2ccccc2)nc2ccccc2c1=O)c1ccc([N+](=O)[O-])cc1	-6.9%	i
CC(Sc1nc(-c2ccccc2)cc(C(F)(F)F)n1)C(=O)Nc1ccc2c(c1)OCO2 (configuration not stated)	-2.6%	-8.6%
CCc1n[nH]c(=S)n1/N=C/c1cc(OC)cc([N+](=O)[O-])c1O	-7.7%	-11.3%
Cc1cc(C)c2c(=O)n(CC(=O)N3CCN(c4ccccc4)CC3)ccc2n1	-1.8%	3.9%
Cc1ccccc1NC(=S)NCc1ccc2[nH]c3c(c2c1)CCCC3	-23.9%	?
Cc1cc2oc(C(=O)Nc3cccnc3)c(C)c2cc1C	-25.2%	i
NC(=O)c1ccc(NC(=O)COC(=O)CCC2CCCCC2)cc1	-17.5%	-13.3%
COCCNC(=O)C(=O)N/N=C/c1cccs1	-6.8%	i
CSCCC(C(=O)NCc1ccccc1)n1c(-c2ccc3c(c2)CCO3)nc2ccccc21 (configuration not stated)	-12.2%	-0.9%
CC(=O)N(CCCN(C)C)CCC(C)CCC=C(C)C (configuration not stated)	-22.5%	-8.4%

5 entries from above, arranged by heavy-atom count, ascending:
SMILES	VACV Venus inh	VACV mCherry inh
CC(=O)N(CCCN(C)C)CCC(C)CCC=C(C)C (configuration not stated)	-22.5%	-8.4%
CN1CCN(C(=S)Nc2cccc(S(=O)(=O)N(C)C)c2)CC1	-0.6%	i
Cc1cc(C)c(NS(=O)(=O)c2cccc3cccnc23)c(C)c1	-12.1%	-1.0%
COc1ccc(-c2nn3c(-c4cc(-c5ccccc5)n[nH]4)nnc3s2)cc1	?	?
CCn1c(CN2CCCCC2)nc2cc(NC(=O)c3cccc([N+](=O)[O-])c3)ccc21	-24.8%	-23.3%

From PubChem
